rRNA inh HTS: selective bacterial rRNA inhibition in E. coli; E. coli WT GFP vs humanized-ribosome RFP mutants, fluorescence, 24 h; active compounds read low; DMSO median 0, no signal -100; GFP signal change (wild-type ribosome), % (concentration not given with the values); 350,000 tested, 1.6% active;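 active = significant combined selectivity score with lowered wild-type GFP, culture density cut under 30%, mutant RFP and density less affected; inactive = any of these conditions unmet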; note: one replicate is shown; some compounds called inactive have numbers as strong as hits
FGF22 binding: FGF22 (human) thermal shift binding; recombinant FGF22 thermal shift, SYPRO orange fluorescence; percent of sucrose octasulfate shift, DMSO zero; calls only at 9.99 µM; AID 651658; Q9HCT0; 340,000 tested, 1.5% active;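 active = melting point raised past a set limit in the mean and every replicate; three in four hits are not shown here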
Target sequence (Q9HCT0 whole entry, looked up): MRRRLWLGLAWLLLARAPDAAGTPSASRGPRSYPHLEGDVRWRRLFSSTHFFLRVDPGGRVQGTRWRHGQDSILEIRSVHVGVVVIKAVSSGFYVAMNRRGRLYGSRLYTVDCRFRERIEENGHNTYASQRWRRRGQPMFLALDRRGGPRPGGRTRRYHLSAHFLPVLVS
rRNA inh HTS OD600: recorded beside rRNA inh HTS, whose call it bears; OD600 change, %; measured here: OD600 growth;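 optical density of the mix in the first replicate; 0 = DMSO median and -100 = no signal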
rRNA inh HTS RFP: recorded beside rRNA inh HTS, whose call it bears; RFP signal change, %; measured here: RFP humanized mutant strains;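 first replicate; 0 = DMSO median and -100 = no signal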
* marks the source's active call; other numbers are inactive results; i = inactive.

rRNA inh HTS | rRNA inh HTS OD600 | rRNA inh HTS RFP | FGF22 binding | Structure
0 | 9 | 0.7 | i | C[C@@H]1CCCCO[C@H](CN(C)S(=O)(=O)c2cccs2)[C@@H](C)CN([C@H](C)CO)C(=O)c2cc(NC(=O)Cc3ccccc3)ccc2O1
0 | 7 | 2.5 | i | Cc1cc(C)cc(NC(=O)Nc2ccc3c(c2)C(=O)N(C)[C@H]2CC[C@H](CC(=O)O)O[C@@H]2CO3)c1
4 | -1 | 7.8 | i | Cc1cccc(-c2ccc([C@@H]3[C@H]4CN(C(=O)c5ccncc5)CCCCN4[C@H]3CO)cc2)c1
-45 | -66 | -9.3 | i | COC(=O)C1=C(C)N(Cc2cccc(C(F)(F)F)c2)C(=NCc2ccc(OC)cc2)NC1c1cccc(C(F)(F)F)c1 (centres undefined)
1 | 5 | -0.8 | i | C[C@@H]1CCCCO[C@@H](CN(C)Cc2ccc3c(c2)OCO3)[C@H](C)CN([C@@H](C)CO)C(=O)c2cc(NS(=O)(=O)c3cn(C)cn3)ccc2O1
1 | 20 | 1.1 | i | C[C@H](CO)N1C[C@H](C)[C@H](CN(C)S(=O)(=O)c2ccc(F)cc2)OCCCC[C@H](C)Oc2ccc(NS(=O)(=O)c3ccc(F)cc3)cc2C1=O
-4 | -12 | 1.2 | i | COc1ccc(-c2cccc3c4c([nH]c23)[C@@H]2C[C@H]3[C@@H](C(=O)N2CC4)[C@H](C)ON3C)cc1
13 | 11 | -0.4 | i | CCCC(C)C(=O)NC1CCCCN(C)C1=O (centres undefined)
-17 | -6 | 0.2 | i | COc1ccc(C(=O)N2CCC[C@H]2C(=O)N2CCC[C@@H]2C(=O)NCc2ccccc2)cc1F
-2 | 6 | 1.5 | i | COc1ccc(NC(=O)Nc2ccc3c(c2)C(=O)N([C@@H](C)CO)C[C@H](C)[C@@H](CN(C)S(=O)(=O)c2ccc(OC)cc2)OCCCC[C@@H](C)O3)cc1
-4 | 4 | -1.8 | i | O=C(/C=C1\OCc2ccccc21)c1ccccc1
-2 | -10 | -2.5 | i | C[C@@H]1CN([C@H](C)CO)C(=O)c2cc(NS(=O)(=O)c3ccc(F)cc3)ccc2O[C@@H](C)CCCCO[C@@H]1CN(C)C(=O)Cc1ccccc1
1 | 6 | -1.9 | i | Cc1noc(C)c1NC(=O)Nc1ccc2c(c1)CC(=O)N([C@@H](C)CO)C[C@H](C)[C@H](CN(C)S(C)(=O)=O)O2
3 | 4 | 1.6 | i | COc1cccc(S(=O)(=O)N[C@H]2CC[C@H](CC(=O)NCc3ccncc3)O[C@H]2CO)c1
3 | 2 | -3.3 | i | CC(C)NC(=O)C1(C)CN(S(C)(=O)=O)CC(=O)N1Cc1cccc(F)c1 (centres undefined)
-8 | -2 | -0.2 | i | CC(C)NC(=O)Nc1ccc2c(c1)C(=O)N([C@H](C)CO)C[C@@H](C)[C@@H](CN(C)Cc1ccc3c(c1)OCO3)OCCCC[C@H](C)O2
0 | -4 | -2.5 | i | C[C@@H]1CCCCO[C@H](CN(C)Cc2ccncc2)[C@@H](C)CN([C@@H](C)CO)C(=O)c2cc(NC(=O)Nc3ccc(F)cc3)ccc2O1
-1 | 5 | 0.7 | i | COc1ccc2c3c([nH]c2c1)[C@H](CO)N(C(=O)c1cccc(F)c1)CC31CCN(S(=O)(=O)c2cccs2)CC1
-2 | -2 | 3.7 | i | COc1ccc(S(=O)(=O)Nc2ccc3c(c2)C(=O)N([C@H](C)CO)C[C@@H](C)[C@H](CN(C)C(=O)Nc2ccccc2)OCCCC[C@@H](C)O3)cc1
-12 | -6 | 1.2 | i | Cc1cc(N2CCN(CC(C)(C)O)C[C@H]2C)ccc1N1CCN(Cc2ccccc2)[C@H](C)C1
3 | 0 | 2.2 | i | Nc1nc2c(ncn2[C@@H]2O[C@H](C(=O)N[C@@H](Cc3ccccc3)C(=O)NCC3CCCCC3)[C@@H](O)[C@H]2O)c(=O)[nH]1
6 | 2 | 2.4 | i | CCCNC(=O)Nc1ccc2c(c1)C(=O)N(C)[C@H]1CC[C@H](CC(=O)NC3CCC3)O[C@H]1CO2
1 | 8 | 0.4 | i | Cc1cc(C(=O)Nc2ccc3c(c2)C(=O)N(C)[C@H]2CC[C@H](CC(=O)O)O[C@H]2CO3)no1
-2 | -5 | -0.6 | i | COc1ccc(NC(=O)N(C)C[C@H]2Oc3ccc(NS(=O)(=O)c4cccs4)cc3CC(=O)N([C@H](C)CO)C[C@H]2C)cc1
3 | 8 | -1.6 | i | COc1ccc(S(=O)(=O)N(C)C[C@@H]2OCCCC[C@@H](C)Oc3ccc(NC(=O)Nc4ccccc4)cc3C(=O)N([C@@H](C)CO)C[C@@H]2C)cc1
2 | 2 | -0.8 | i | CCNC(=O)Nc1ccc2c(c1)C(=O)N(C)[C@@H]1CC[C@@H](CC(=O)NCCN3CCCC3)O[C@@H]1CO2
-1 | -1 | -1.2 | i | O=C(Cc1ccccc1)N1C[C@@H]2[C@H](c3ccccc31)[C@H](CO)N2C(=O)C1CCCC1
-42 | -77 | -16 | i | COC(=O)C1=C(C)N(Cc2ccccc2C(F)(F)F)C(=NCc2ccc3c(c2)OCO3)NC1c1cccc(F)c1 (centres undefined)
14 | 15 | 2.9 | i | CCCN1CCCCC(NC(=O)c2c(F)cccc2F)C1=O (centres undefined)
-2 | -6 | -3.2 | i | COc1ccccc1-c1cn(CC[C@H]2CC[C@@H](NC(=O)c3cnccn3)[C@@H](CO)O2)nn1
0 | 4 | -1.0 | i | CCCNC(=O)Nc1ccc2c(c1)C(=O)N(C)[C@@H]1CC[C@@H](CC(=O)NC3CCC3)O[C@@H]1CO2
-4 | -4 | -2.8 | i | O=C(c1ccccc1F)N1CC[C@@H]2[C@H]1c1cc(C#Cc3ccc(F)cc3)ccc1N[C@@H]2CO
0 | -1 | -1.7 | i | Cc1noc(C)c1NC(=O)Nc1cccc2c1O[C@H](CN(C)S(=O)(=O)c1cccs1)[C@@H](C)CN([C@@H](C)CO)C2=O
1 | -2 | -4.6 | i | C[C@@H]1CN([C@H](C)CO)C(=O)Cc2cc(NC(=O)CCC(F)(F)F)ccc2O[C@@H]1CN(C)C(=O)Nc1ccc(C(F)(F)F)cc1
0 | 0 | -1.7 | i | CN(C)C(=O)C[C@@H]1C[C@H]2c3cc(NC(=O)Nc4ccccc4)ccc3O[C@H]2[C@H](CO)O1
-4 | -9 | -0.8 | i | O=C(Nc1ccc(F)cc1)Nc1ccc2c(c1)[C@H]1C[C@H](CC(=O)N3CCCCC3)O[C@H](CO)[C@H]1O2
-2 | -10 | 4.3 | i | C[C@H](CO)N1C[C@H](C)[C@H](CN(C)C(=O)Nc2cccc3ccccc23)Oc2ccc(NC(=O)Nc3cccc4ccccc34)cc2CC1=O
3 | 4 | 0.2 | i | CNC(=O)C[C@H]1CC[C@@H]2[C@@H](COc3ccc(NC(=O)NCc4ccccc4)cc3C(=O)N2C)O1
22 | 15 | 6.2 | i | Cc1ccccc1C(=O)N[C@H](C(=O)N1CCC[C@H]1C(=O)NC1CCCC1)C1CCCCC1
-3 | 0 | 1.5 | i | C[C@@H]1CN([C@H](C)CO)C(=O)c2cc(NS(=O)(=O)c3ccc(F)cc3)ccc2O[C@H]1CN(C)S(=O)(=O)c1ccccc1
-42 | -74 | -15 | i | COC(=O)C1=C(C)N(C)C(=NCc2ccc(C(F)(F)F)cc2)NC1c1ccc(F)cc1 (centres undefined)
-49 | -74 | -4.6 | i | C[C@@H]1CCCCO[C@H](CN(C)C(=O)CCCN(C)C)[C@H](C)CN([C@@H](C)CO)C(=O)c2cc(NC(=O)Nc3ccc(C(F)(F)F)cc3)ccc2O1
4 | 13 | 0.3 | i | O=C(NCc1ccccc1)C(c1ccco1)N1CCN(C(=O)C2CCCO2)CC1 (centres undefined)
0 | -1 | 0.2 | i | COc1ccc(S(=O)(=O)Nc2ccc3c(c2)C(=O)N([C@H](C)CO)C[C@H](C)[C@H](CN(C)C(=O)Nc2cccc4ccccc24)OCCCC[C@@H](C)O3)cc1
5 | 6 | -1.7 | i | C[C@@H]1CCCCO[C@@H](CN(C)Cc2ccc(C(=O)O)cc2)[C@H](C)CN([C@@H](C)CO)C(=O)c2cc(NS(=O)(=O)c3cn(C)cn3)ccc2O1
0 | -2 | -1.1 | i | COc1ccc(NC(=O)Nc2ccc3c(c2)C(=O)N([C@H](C)CO)C[C@@H](C)[C@H](CN(C)S(=O)(=O)c2cn(C)cn2)OCCCC[C@H](C)O3)cc1
4 | 12 | 0.9 | i | CN(C)CCCNC(=O)[C@@H]1[C@@H](CO)[C@@H]2Cn3c(ccc(-c4ccc(F)cc4)c3=O)[C@@H]2N1C
4 | 4 | -2.0 | i | CO[C@H]1CN(C)C(=O)c2cc(NC(=O)C3CC3)ccc2OC[C@@H](C)N(C)C[C@@H]1C
1 | -4 | 2.7 | i | Cc1noc(C)c1S(=O)(=O)Nc1ccc2c(c1)CC(=O)N([C@H](C)CO)C[C@@H](C)[C@H](CN(C)Cc1ccc(Oc3ccccc3)cc1)O2
3 | 8 | 0.2 | i | C[C@@H]1CN([C@H](C)CO)C(=O)Cc2cc(NS(=O)(=O)c3cn(C)cn3)ccc2O[C@H]1CN(C)C(=O)NC1CCCCC1
1 | 16 | 2.8 | i | Cc1cccc(-c2ccc([C@H]3[C@H](CO)N4CCCCN(C(=O)c5ccncc5)C[C@@H]34)cc2)c1
-5 | -24 | 4.9 | i | C[C@H](CO)N1C[C@H](C)[C@@H](CN(C)Cc2ccc(Oc3ccccc3)cc2)Oc2ccc(NC(=O)CCC(F)(F)F)cc2CC1=O
-7 | -12 | 2.3 | i | O=C(Nc1ccc(F)cc1)Nc1ccc2c(c1)[C@@H]1C[C@@H](CC(=O)N3CCCCC3)O[C@@H](CO)[C@@H]1O2
0 | 1 | 0.9 | i | C[C@H](CO)N1C[C@H](C)[C@@H](CN(C)S(C)(=O)=O)OCCCC[C@H](C)Oc2ccc(NS(C)(=O)=O)cc2C1=O
1 | -4 | 2.2 | i | O=C(Cc1c[nH]c2ccccc12)Nc1ccc(Nc2cccnc2)c(-c2ccc(Cl)c(Cl)c2)c1
0 | -1 | 0.2 | i | CO[C@H]1CN(C)C(=O)c2ccc(NC(=O)C3CC3)cc2OC[C@H](C)N(C(=O)c2ccccc2F)C[C@H]1C
-2 | 11 | -2.0 | i | CN1C[C@@H]2[C@H](c3ccccc31)[C@@H](CO)N2C(=O)CN1CCOCC1
9 | 9 | 0.3 | i | O=C(NCc1ccco1)C1C(=O)Nc2ccccc2C(=O)N1C1CCCCC1 (centres undefined)
-7 | -15 | -4.3 | i | COc1cccc(C(=O)Nc2ccc3c(c2)C(=O)N(C)[C@H]2CC[C@H](CC(=O)NCc4ccc(F)cc4)O[C@@H]2CO3)c1
-8 | -7 | -2.3 | i | COC(=O)C1=CN(c2ccc(Oc3ccccc3)cc2)C(N)=C(C#N)C1c1cccc(F)c1 (centres undefined)

Next part:
rRNA inh HTS | rRNA inh HTS OD600 | rRNA inh HTS RFP | FGF22 binding | Structure
8 | 1 | 4.8 | i | Cc1ccc(NC(=O)[C@@H](Cc2ccccc2)NC(=O)[C@H]2O[C@@H](n3ccc(=O)[nH]c3=O)[C@H](O)[C@@H]2O)cc1C
-6 | -8 | 0.6 | i | C[C@@H]1CCCCO[C@@H](CN(C)S(=O)(=O)c2cn(C)cn2)[C@H](C)CN([C@@H](C)CO)C(=O)c2cc(NC(=O)Nc3ccc(C(F)(F)F)cc3)ccc2O1
-5 | 0 | -0.5 | i | N#Cc1cccc(-c2ccc([C@@H]3[C@@H](CO)N4CCCCN(S(=O)(=O)c5ccccc5)C[C@@H]34)cc2)c1
-6 | -17 | -0.6 | i | Cn1cnc(S(=O)(=O)N2CC[C@@H]3[C@H](CO)Nc4ccc(-c5ccccc5F)cc4[C@@H]32)c1
20 | 15 | 0.0 | i | CCOC(=O)N[C@H](C(=O)N1CCC[C@H]1C(=O)NCc1ccccc1)C(C)C
6 | 6 | -1.7 | i | C[C@H](CO)N1C[C@H](C)[C@@H](CN(C)C(=O)NC2CCCCC2)Oc2c(NC(=O)CCCCCC(=O)Nc3ccccc3N)cccc2C1=O
18 | 17 | 4.6 | i | CC(C)C[C@H](NC(=O)c1nccs1)C(=O)N1CCC[C@H]1C(=O)NCc1ccccc1
6 | -2 | 4.9 | i | O=C(N[C@H](C(=O)N1CCC[C@H]1C(=O)NCCc1ccccc1Cl)c1ccccc1)c1ccc(Cl)c(Cl)c1
-1 | 2 | 1.3 | i | CC(=O)Nc1ccc2c(c1)C(=O)N(C)[C@H]1CC[C@H](CC(=O)NC3CCCCC3)O[C@H]1CO2

Full records, quoted from the list. Values in the order: rRNA inh HTS | rRNA inh HTS OD600 | rRNA inh HTS RFP | FGF22 binding
Record of Cc1ccc(NC(=O)[C@@H](Cc2ccccc2)NC(=O)[C@H]2O[C@@H](n3ccc(=O)[nH]c3=O)[C@H](O)[C@@H]2O)cc1C → 8 | 1 | 4.8 | i
Record of Cn1cnc(S(=O)(=O)N2CC[C@@H]3[C@H](CO)Nc4ccc(-c5ccccc5F)cc4[C@@H]32)c1 → -6 | -17 | -0.6 | i

3 entries already listed, arranged by number of heavy atoms, smallest number first.
rRNA inh HTS | rRNA inh HTS OD600 | rRNA inh HTS RFP | FGF22 binding | Structure
-6 | -17 | -0.6 | i | Cn1cnc(S(=O)(=O)N2CC[C@@H]3[C@H](CO)Nc4ccc(-c5ccccc5F)cc4[C@@H]32)c1
-1 | 2 | 1.3 | i | CC(=O)Nc1ccc2c(c1)C(=O)N(C)[C@H]1CC[C@H](CC(=O)NC3CCCCC3)O[C@H]1CO2
6 | 6 | -1.7 | i | C[C@H](CO)N1C[C@H](C)[C@@H](CN(C)C(=O)NC2CCCCC2)Oc2c(NC(=O)CCCCCC(=O)Nc3ccccc3N)cccc2C1=O

Screening data deposited in PubChem by Broad Institute.

An excerpt; the hit share may differ from the screen's.
